RecA splice inh: inhibitors of M. tuberculosis RecA intein splicing | inhibition, %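 (about 9 µM by stock and volumes)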 | cell-free RecA intein splicing, fluorescence | P9WHJ3 | actives 0.75% (n = 290,000) | AID 2221; in the data active = inhibition above about 30%; inconclusive = no clear call, values can overlap the other calls;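 note: 0% = vehicle wells and 100% = reference inhibitor control wells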
Target sequence (P9WHJ3 whole entry, looked up, canonical isoform): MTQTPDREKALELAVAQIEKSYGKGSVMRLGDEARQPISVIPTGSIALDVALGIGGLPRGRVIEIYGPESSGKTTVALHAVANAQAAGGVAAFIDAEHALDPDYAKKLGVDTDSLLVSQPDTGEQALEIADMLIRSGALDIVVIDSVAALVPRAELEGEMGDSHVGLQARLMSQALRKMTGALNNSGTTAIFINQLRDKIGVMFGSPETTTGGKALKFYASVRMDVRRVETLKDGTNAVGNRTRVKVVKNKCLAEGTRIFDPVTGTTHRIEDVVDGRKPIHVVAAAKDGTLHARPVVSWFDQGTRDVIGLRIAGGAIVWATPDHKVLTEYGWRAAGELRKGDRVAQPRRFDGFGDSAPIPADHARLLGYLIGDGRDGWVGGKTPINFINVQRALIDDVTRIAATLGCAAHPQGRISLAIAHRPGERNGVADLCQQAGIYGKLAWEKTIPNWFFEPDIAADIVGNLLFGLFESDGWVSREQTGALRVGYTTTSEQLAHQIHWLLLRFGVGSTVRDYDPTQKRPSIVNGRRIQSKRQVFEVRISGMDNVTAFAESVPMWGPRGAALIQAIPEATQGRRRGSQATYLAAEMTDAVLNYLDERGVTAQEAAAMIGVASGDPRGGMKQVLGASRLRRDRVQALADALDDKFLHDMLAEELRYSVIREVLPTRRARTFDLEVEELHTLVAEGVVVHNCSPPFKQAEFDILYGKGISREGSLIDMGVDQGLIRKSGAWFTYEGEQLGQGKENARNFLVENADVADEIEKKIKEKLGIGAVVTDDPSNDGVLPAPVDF
Mtb growth: M. tuberculosis H37Rv growth inhibitors, H37Rv strain (AID 1626). M. tuberculosis H37Rv growth inhibition; higher % means a stronger effect. inhibition, % at 10 µM, or IC50 in µM where a hit was titrated. actives 0.95% (n = 220,000);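 active = confirmed in a dose series; inconclusive = inhibition above 80% but not taken into the dose series; inactive = below 80% or under 30% at every dose of the series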;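 note: bacteria incubated seven days before Alamar blue readout; 0% = bacteria only wells and 100% = bacteria with antibiotic wells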
Mtb betalactam: beta-lactam sensitization of Mtb H37Rv | M. tuberculosis H37Rv growth with meropenem, percent inhibition; hits of this screen are not shown here | inhibition, % at 25 µM | actives 0.27% (n = 330,000) | AID 434955;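 active = about 74% or more and at least 40 points above the plate without the antibiotic, then above 30% in a dose series; inconclusive = first-round hits that could not be retested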;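 note: growth measured after seven days incubation then overnight dye step; 0% = bacteria only wells and 100% = bacteria with antibiotic; twin plates without the antibiotic show which effects depend on it; some results filed as inactive read as strong as hits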
YopH PTP inh: inhibitors of Yersinia enterocolitica YopH tyrosine phosphatase; inhibition, %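 (about 10 µM by stock and volumes)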; fluorescence Ex485/Em525; actives 0.16% (n = 140,000);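 active = inhibition of 50% or more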;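 note: controls were vehicle for no effect and minimum signal wells for full effect; inactives centre near -20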
Arbovirus anti: antivirals against arbovirus infection; arbovirus infection cell-based antiviral screen; inhibition, % at 10 µM; actives 0.37% (n = 200,000); AID 1251;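 active = inhibition from about 30%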;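 note: bluetongue infection of BSR cells; cell survival read as ATP light after 72 h; 0% = infected wells without compound and 100% = uninfected wells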
Arbovirus anti repeat: further read-out of Arbovirus anti, marked with its call; inhibition, %; measured here: 10K subset replicate screen; many hits read low in the repeat;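 first of two repeat runs on a subset; 0% = infected and 100% = uninfected wells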
An asterisk follows results filed as active; ? = inconclusive; nt = no result given.

SMILES	RecA splice inh	Mtb growth	Mtb betalactam	YopH PTP inh	Arbovirus anti	others
COc1ccccc1C(=O)NC(CCSC)C(=O)NCC(c1ccco1)N(C)C (configuration not stated)	6.2	-4%	-16	-50	3	Arbovirus anti repeat=0
O=S(=O)(Nc1ccccn1)c1cccc(S(=O)(=O)c2ccc(Cl)cc2)c1	-2.8	3%	-1	nt	11
CCn1c2ccccc2c2nnc(SCC(=O)NCCOC)nc21	-1.4	-8%	-5	-19	0
CCOc1cccc(-c2c(C(=O)N/N=C/c3ccncc3)nnn2-c2nonc2N)c1	-2.5	nt	15	nt	nt
CCN(CC)S(=O)(=O)c1ccc(Oc2cccc(C(C)=O)c2)nc1	-4.3	-7%	1	-39	-1
CC(=O)Oc1cccc(N2C(=O)C3C4C=CC(C4=C(C)C)C3C2=O)c1 (configuration not stated)	5.8	23%	1	-41	9
C=CCn1c(CSCc2ccc(C)cc2)nnc1SCC(=O)NCc1ccccc1	2.6	-12%	-6	-15	0
Cc1ccc(C2CC(c3cccs3)=NN2C(=O)c2ccc(Br)o2)cc1 (configuration not stated)	17	14%	11	-16	-10
CCOC(=O)C1C(=O)C=C(c2ccc(C)cc2)CC1c1ccco1 (configuration not stated)	3.0	10%	-3	-20	1
O=C(Nc1nnc(C2CC2)s1)c1cc2c(s1)CCCCCC2	nt	-4%	nt	-48	-8
COc1ccc(NC(=O)c2ccccc2SC)c(OC)c1	0.1	68%	100	nt	-2
CCOc1ccc(NC(=O)c2cc([N+](=O)[O-])ccc2N2CCOCC2)cc1	0.0	nt	-10	nt	nt
O=c1cnc2ccccc2n1CC1CCCCC1	0.2	-3%	-5	-26	1
COc1ccc(C2CC(c3ccc(Cl)cc3Cl)Nc3nc(N)nn32)cc1OC (configuration not stated)	-3.6	6%	6	-11	7	Arbovirus anti repeat=5
Cc1ccc(C(C(=O)NC2CCCC2)N(Cc2ccco2)C(=O)CCC(=O)Nc2cc(C)on2)cc1 (configuration not stated)	1.6	-2%	-8	-4	2
CC(=O)c1c(C)[nH]c(C(=O)OCC(=O)Nc2ccc([N+](=O)[O-])cc2Cl)c1C	1.9	5%	-2	-5	-11
CCCCCCCCCOC(=O)C(CC(=O)O)N1CCOCC1 (configuration not stated)	2.9	-1%	-9	7	1
CC(O)(CS(=O)(=O)Cc1ccccc1Cl)C(=O)Nc1cccc(C(F)(F)F)c1 (configuration not stated)	-2.3	3%	-2	-12	6
CCOC(=O)c1sc(C)c2c1NC(C)(c1ccccc1)NC2=O (configuration not stated)	0.8	8%	0	-2	-3
Cc1cc(=O)n2[nH]c(-c3sccc3-n3c(C)ccc3C)cc2n1	nt	2%	-3	nt	12

Reprinted from the part before: five entries, followed by the next part.
SMILES	RecA splice inh	Mtb growth	Mtb betalactam	YopH PTP inh	Arbovirus anti	others
CC(=O)c1c(C)[nH]c(C(=O)OCC(=O)Nc2ccc([N+](=O)[O-])cc2Cl)c1C	1.9	5%	-2	-5	-11
CCCCCCCCCOC(=O)C(CC(=O)O)N1CCOCC1 (configuration not stated)	2.9	-1%	-9	7	1
CC(O)(CS(=O)(=O)Cc1ccccc1Cl)C(=O)Nc1cccc(C(F)(F)F)c1 (configuration not stated)	-2.3	3%	-2	-12	6
CCOC(=O)c1sc(C)c2c1NC(C)(c1ccccc1)NC2=O (configuration not stated)	0.8	8%	0	-2	-3
Cc1cc(=O)n2[nH]c(-c3sccc3-n3c(C)ccc3C)cc2n1	nt	2%	-3	nt	12
Cc1ccc2c(n1)sc1c(N)ncnc12	nt	4%	-5	-9	6
Cc1ccc(NC(=O)CSc2nnc(CN3CCOCC3)n2-c2ccccc2)cc1	0.1	-8%	0	3	-7
CCc1ccc(OCC(=O)NC(C)C)cc1	11	4%	4	nt	0
O=C(CN1C(=O)COc2ccccc21)N1CCOCC1	-2.7	nt	1	nt	nt
Cc1ccc(C2CC2C(=O)NNC(=S)Nc2cccc(Cl)c2)cc1 (configuration not stated)	11	-4%	5	-28	-4
O=C(C1CCCN(S(=O)(=O)c2cccc3cccnc23)C1)N1CCc2ccccc21 (configuration not stated)	0.8	-6%	1	-35	-2	Arbovirus anti repeat=-3
Cc1cc(C)n(CC(C)NCc2cn[nH]c2-c2cccc3ccccc23)n1 (configuration not stated)	-1.7	4%	12	nt	4
O=C(Nc1nc2ccc([N+](=O)[O-])cc2s1)c1c(F)cccc1F	2.6	3%	-1	nt	9
CSc1nc(C)cc(Oc2ccc(OCC(N)=O)nn2)n1	-8.6	-6%	-2	nt	14
CC(=O)c1c(C)[nH]c(C(=O)CSc2nc3ccccc3c(=O)n2CCCN2CCOCC2)c1C	nt	4%	0	-20	-4
CCOC(=O)Cc1cc(=O)n2[nH]cc(-c3cccc(Br)c3)c2n1	1.1	23%	-10	nt	8
O=C(OCN1C(=O)C(=O)c2ccccc21)c1ccc(Cl)cc1	0.5	nt	3	nt	nt
COc1c(C)cc(C(=O)C2CCCN(C(=O)c3ccoc3)C2)cc1C (configuration not stated)	-0.7	2%	-14	nt	1
COc1ccc(C(=O)Oc2ccc(/C=N/O)cc2)cc1	5.0	5%	?	-40	-5
Fc1cccc(Cn2ccc(-c3ccc4c(c3)OCO4)n2)c1	7.2	7%	10	-19	-10
COCCCNC(=O)c1cc2c(-c3cccc(OC)c3)nn(C)c2s1	0.3	nt	-11	nt	nt
Cc1ccnc(NC(=O)c2cc3c(=O)oc4ccc(C)cc4c3s2)c1	-42	-8%	-6	nt	nt
CC1CCN(c2ccccc2NC(=O)c2ccc([N+](=O)[O-])o2)CC1	-0.3	nt	3	nt	nt
Cc1cc(NC(=O)C(C)C)ncc1NC(=O)c1cccc(F)c1	-3.7	1%	5	-60	2
CCOc1ccccc1N1CCN(C(=O)CNC(=O)c2ccc(OC)c(OC)c2)CC1	0.1	nt	-1	nt	nt

Part of the list above in order of SMILES length, ascending.
SMILES	RecA splice inh	Mtb growth	Mtb betalactam	YopH PTP inh	Arbovirus anti	others
CCc1ccc(OCC(=O)NC(C)C)cc1	11	4%	4	nt	0
Fc1cccc(Cn2ccc(-c3ccc4c(c3)OCO4)n2)c1	7.2	7%	10	-19	-10
CCOC(=O)Cc1cc(=O)n2[nH]cc(-c3cccc(Br)c3)c2n1	1.1	23%	-10	nt	8
CC(=O)c1c(C)[nH]c(C(=O)CSc2nc3ccccc3c(=O)n2CCCN2CCOCC2)c1C	nt	4%	0	-20	-4

New compounds follow.
SMILES	RecA splice inh	Mtb growth	Mtb betalactam	YopH PTP inh	Arbovirus anti	others
CCCn1c(C(C)Nc2nc(C)cs2)nc2cc(Cl)c(Cl)cc21 (configuration not stated)	5.6	nt	2	nt	nt
CCOc1ccccc1CN1CCN(CCCn2cccn2)CC1CCO (configuration not stated)	1.0	1%	2	nt	4
O=C(NN1CCOCC1)c1cc(-c2ccc(Br)s2)nc2ccccc12	-0.4	1%	-2	nt	-9
N#CC1(C#N)C(C(N)=O)C1c1ccccc1 (configuration not stated)	-3.2	2%	-6	-18	-3
O=C(CCCN1C(=O)/C(=C/c2ccc3c(c2)OCO3)SC1=S)Nc1ccc(C(=O)O)cc1	8.0	nt	2	nt	nt
C=CCSc1n[nH]c(-c2cccs2)n1	0.5	-2%	-11	nt	nt
Cc1ccc(-n2ncc3c(=O)n(CC(=O)N4CCN(c5ccccc5)CC4)cnc32)cc1	0.7	3%	3	nt	11
CCCn1nnnc1NCc1cccc(Cl)c1	1.8	nt	3	nt	nt
COC(=O)N/N=C\C=C\c1ccc2c(c1)OCO2	-2.4	-15%	14	-39	-3
COc1cccc(NC(=O)/C=C/c2ccc([N+](=O)[O-])cc2)c1	3.6	80%	30	nt	nt
COc1cc(/C=N/NC(=O)c2ccc(=O)[nH]n2)ccc1O	-5.3	3%	73	-13	-2
Cc1[nH]c2ccccc2c1C(=O)COC(=O)c1ccc[n+]([O-])c1	-1.6	-1%	-3	nt	nt
COc1ccccc1-c1nn2c(C3COc4ccccc4O3)nnc2s1 (configuration not stated)	1.0	-6%	11	-41	-1
Cc1ccc(C)c2[nH]c(=O)c(CCNC(=O)c3ccc(Br)o3)cc12	3.4	3%	0	29	nt
Cn1c(SCC(=O)c2ccccc2)nnc1-c1ccco1	-2.8	-4%	-16	-16	5
Cc1cc(C)n(C(=O)c2c([N+](=O)[O-])c(C)nn2C)n1	-3.8	-10%	-8	-35	-2
O=C(COc1ccc(Br)cc1)Nc1ccc(CN2CCOCC2)cc1	2.3	nt	-6	nt	nt
CCCc1cc(C(=O)N2CCCC(C(=O)c3cc(C)c(OC)c(C)c3)C2)n(C)n1 (configuration not stated)	1.4	nt	10	nt	nt
Cc1ccc(C(C)(C)C)cc1S(=O)(=O)Nc1nc2ccccc2nc1Cl	11	nt	-10	nt	nt
CN1CCc2nc(SCc3ccc(C(C)(C)C)cc3)c(C#N)cc2C1	nt	5%	14	-41	7
CC(C)CN(C)C(=O)CCc1nnc(Cc2cccc(C(F)(F)F)c2)o1	-1.4	0%	12	nt	4
Fc1cc(NCc2ccccc2)nc(NCc2ccccc2)n1	-0.8	5%	15	-19	-12
COc1ccc(OC)c(C2N(c3cc(C)on3)C(=O)C3CCCN32)c1 (configuration not stated)	-0.3	-7%	-12	-19	5
Cc1ccc(C)c(NC(=O)c2ccc3ccccc3n2)c1	-0.1	-3%	6	-3	-4
COc1ccc(N2CCN(Cc3cc(=O)oc4cc(C)c(Cl)cc34)CC2)cc1	1.8	8%	-4	-33	4
Cc1ccccc1C(=O)NC(=S)NCCN1CCOCC1	-2.5	-10%	2	-19	3
COc1ccc(OC)c(N(CC(=O)Nc2ccccc2F)S(=O)(=O)c2ccccc2)c1	3.4	nt	-1	nt	nt
COc1cccc(NC(=O)c2ccccc2N(Cc2ccccc2)S(C)(=O)=O)c1	0.0	nt	6	nt	nt
CCc1cccc(NC(=O)c2cccc3c2C(=O)N(CC2CCCO2)C3)c1 (configuration not stated)	4.9	nt	-1	nt	nt
COc1ccc(Cl)cc1NC(=O)CSc1nc(=O)n(CCN(C)C)c2c1CCCC2	-2.7	nt	-1	nt	nt
O=C(OCC1CC(c2ccccc2)=NO1)c1ccc(Br)cc1 (configuration not stated)	-3.3	10%	3	-18	-2
O=C(Nc1ccc(Br)cc1)c1cccnc1N1CCOCC1	1.8	7%	4	nt	-2
O=C1c2cccc([N+](=O)[O-])c2C(=O)N1c1c[nH]c(=O)[nH]c1=O	-3.2	1%	4	nt	16
COCCCNc1nc(N)c([N+](=O)[O-])c(Nc2cc(OC)ccc2OC)n1	4.2	4%	0	nt	nt
COCCCNC(=S)NCCNc1nc2c(C)c(C)ccc2cc1C#N	nt	2%	nt	nt	0
Cc1cc(O)c(Oc2cc(C)cc(O)c2O)c(O)c1	nt	6%	5	nt	-1
CC1CN(C(=S)Nc2ccc(SC(F)F)cc2)CC(C)O1 (configuration not stated)	-1.7	nt	-1	nt	nt
CCc1ccccc1N(C)S(=O)(=O)c1cc(-c2cc(C)no2)ccc1OC	1.6	nt	4	nt	nt
Cc1ccc(-c2ccc(=O)n(CCC(=O)N3CCN(c4ccccc4)CC3)n2)cc1	0.2	nt	-2	nt	nt
O=C(Nc1cccc(NC(=O)c2cccs2)c1)c1ccc([N+](=O)[O-])o1	-3.0	8µM*	100	nt	nt
NC(=O)Cn1cc(C=C2C(=O)NC(=O)NC2=O)c2ccccc21	-3.0	nt	-10	nt	nt
COc1ccc(C(=O)COC(=O)CN2C(=O)C3C4C=CC(C4)C3C2=O)cc1 (configuration not stated)	-0.4	-10%	-3	-28	-1
CC(C)[C@H](NC(=O)N1CCn2c1nc1ccccc12)C(=O)N[C@@H](Cc1ccccc1)C(=O)O	-0.2	nt	-6	nt	nt
O=C(O)c1cccc(CN2C(=O)SC(Nc3cccc4ccccc34)C2=O)c1 (configuration not stated)	0.8	9%	10	nt	-5
CCc1nc(C)cn1S(=O)(=O)c1cc(C)c(OC)c(C)c1C	4.2	-3%	-1	-23	12
COc1ccc(OC)c(/C=N/NC(=O)CCc2n[nH]c(=O)[nH]c2=O)c1	1.5	-8%	1	nt	7
Cc1ccc(-c2nnc(-c3ccc(NC(=O)c4cccs4)cc3)o2)cc1	-0.3	-6%	69	-46	-10
COc1cccc(C(=O)NC(=S)NCc2ccco2)c1	2.7	0%	5	-36	9
O=c1c2ccccc2c(-c2ccccc2)nn1-c1ccc(Cl)c(Cl)c1	4.1	14%	5	-25	-2
O=C(O)COc1ccc(/C=N/NC(=O)c2ccccc2Br)cc1	0.3	-6%	-5	nt	5
Cc1cccc(NC(=O)CSc2nnc(-c3ccco3)n2CC2CCCO2)n1 (configuration not stated)	-2.0	-10%	0	nt	1
CCCC1=Nc2cc(C(=O)N3CCC(C(=O)OCC)CC3)ccc2Sc2ccccc21	16	nt	9	nt	nt
CCSc1nc(C(F)(F)F)cc(=O)n1-c1ccccc1	1.0	-3%	7	-27	2
Cc1nc2ccccc2n1CC(=O)NCCN1CCCC1	1.0	-3%	-8	-6	8

An excerpt; rates above refer to the full screens.
